# CtBP-E1A blk = CtBP/E1A binding inhibition. activity change, % (test concentration not listed). AlphaScreen GST-E1A/His-CtBP binding, 1536-well; hits give low values; control for the full effect not named in the record. actives 0.49% (n = 340,000); in the data active means activity change below about -65%; inconclusive means about -30% to -65%; inactive means above about -30%; also: % is scaled to controls: 0 for no effect and ±100 for the full control effect; compound concentration not given in the record
#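 Homogeneous bead-based format: GST-tagged E1A captured on glutathione donor beads, His-tagged CtBP on nickel acceptor beads; compounds precede bead addition by 2 h at 37 °C.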
# TRPML1 agonist = human mucolipin-1 channel agonism; TRPML1-expressing cells, Ca2+ dye fluorescence, FDSS; host cell line not named in the record; reference of the full effect not given here; actives 0.12% (n = 410,000); activation, % (no concentration beside the values); Q9GZU1; AID 624414; in the data active = activation above about 50%; inconclusive = about 30% to 50%; inactive = below about 30%; also: 0% is about no effect; the text of the record puts the active cut at 80%
# Target sequence (Q9GZU1 whole entry, looked up): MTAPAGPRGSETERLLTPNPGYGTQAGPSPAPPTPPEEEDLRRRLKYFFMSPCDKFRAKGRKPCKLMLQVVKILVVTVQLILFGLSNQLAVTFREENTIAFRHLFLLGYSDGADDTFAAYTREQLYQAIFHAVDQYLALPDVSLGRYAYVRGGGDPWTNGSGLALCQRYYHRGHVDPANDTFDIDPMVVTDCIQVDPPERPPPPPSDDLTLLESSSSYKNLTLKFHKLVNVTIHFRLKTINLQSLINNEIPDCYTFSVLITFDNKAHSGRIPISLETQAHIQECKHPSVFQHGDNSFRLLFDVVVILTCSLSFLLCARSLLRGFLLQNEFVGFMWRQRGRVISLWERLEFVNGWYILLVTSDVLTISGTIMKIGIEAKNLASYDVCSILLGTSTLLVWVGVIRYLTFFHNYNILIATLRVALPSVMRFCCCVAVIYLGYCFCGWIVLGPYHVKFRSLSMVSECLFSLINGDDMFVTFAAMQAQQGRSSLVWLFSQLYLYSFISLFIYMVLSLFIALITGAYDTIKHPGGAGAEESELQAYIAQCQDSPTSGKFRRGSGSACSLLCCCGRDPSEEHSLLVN
#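 TRPML1-DL cells, Tet-induced overnight (~16 h, 37 degrees C), loaded 45-90 min at room temperature with Ca8 no-wash calcium dye plus quencher. FDSS fluorescence: 10 s baseline, compound pin-transfer, 110 s agonist read, then EC80 54-4 (4uM final) and 110 s antagonist read.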
# PINK1 expr mod = modulators of PINK1 expression | PINK1 immunofluorescence, high-content cytometry, 24 h | Potency, µM (titrated, usually from 76.6 µM), inactives show top-dose activation (PINK1 increase), actives largely listed as activators | actives 0.2% (n = 410,000) | AID 624263; active = well fitted activation curve with a large enough effect; inconclusive = small, poorly fitted or top-dose-only effect; inactive = flat fitted curve, though single readings scatter; cell line not stated here;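 also: potency is read from the fitted curve at half-maximal effect; % of control where 0% means no effect; nearly all actives have a fitted effect of over 65% in size; a mitochondrial uncoupler was the plate control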
#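 Stable cell line, 250 cells/well, 12 h attachment; compounds pinned at 5 concentrations, 24 h; CCCP control. Fixed with nuclear dye, primary antibodies 12 h at 10 degrees C, secondary plus cell stain; laser-scanning cytometer read.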
# D2 potentiator = potentiates the human D2 dopamine receptor allosterically. P14416. DiscoveRx D2 beta-arrestin cells, luminescence, 90 min; 100% = 57 uM dopamine signal. potentiation, % (concentration not given with the values). actives 0.23% (n = 360,000). AID 624464; active = potentiation of 50% or more; inconclusive = 30% to 50%; inactive = 30% or less;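 also: compound concentration not given in the record; tested on top of an EC20 dose of dopamine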
# Target sequence (P14416 whole entry, looked up): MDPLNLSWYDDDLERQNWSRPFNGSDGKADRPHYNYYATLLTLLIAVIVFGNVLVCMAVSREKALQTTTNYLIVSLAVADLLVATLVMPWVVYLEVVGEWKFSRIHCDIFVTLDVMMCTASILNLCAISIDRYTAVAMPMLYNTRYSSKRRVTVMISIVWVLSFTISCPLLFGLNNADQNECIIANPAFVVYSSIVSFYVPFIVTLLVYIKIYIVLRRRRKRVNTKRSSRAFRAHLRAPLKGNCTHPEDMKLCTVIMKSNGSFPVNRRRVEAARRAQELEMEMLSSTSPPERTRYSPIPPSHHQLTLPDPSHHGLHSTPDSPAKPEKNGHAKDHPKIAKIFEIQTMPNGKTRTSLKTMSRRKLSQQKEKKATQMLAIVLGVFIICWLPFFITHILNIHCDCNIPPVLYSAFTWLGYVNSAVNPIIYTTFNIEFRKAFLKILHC
#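 PathHunter D2 cells, attached overnight at 37 deg C, received compound in DMSO plus dopamine at EC20 (50 nM final) for 90 min at 37 deg C. Beta-arrestin recruitment was read as luminescence after 1 h with detection reagent at ambient temperature.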
# Six1-Eya2 blk = Six1/Eya2 interaction inhibition; Q15475+O00167; actives 0.56% (n = 360,000); activity change, % (concentration not given with the values); AID 651725; AlphaScreen GST-Six1/His-Eya2 binding, biochemical; hits give low values; control for the full effect not named in the record; in the data active = activity change below about -65%; inconclusive = about -30% to -65%; inactive = above about -30%; also: % is scaled to controls: 0 for no effect and ±100 for the full control effect
#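 AlphaScreen luminescence read after one hour at 37 °C in darkness. Pin-transferred compounds met GST-Six1 and His-Eya2 protein (5X stock 250 nM/500 nM) plus glutathione donor and Ni-chelate acceptor beads (5X, 50 ug/mL).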
# D2 agonist = activates the human D2 dopamine receptor. DiscoveRx PathHunter D2 beta-arrestin, luminescence, 90 min; 100% = 57 uM dopamine signal. activation, % (concentration not given with the values). actives 0.084% (n = 360,000); in the data active = activation above about 40%; inconclusive = about 15% to 40%; inactive = below about 15%; also: compound concentration not given in the record; the text of the record calls up to 30% inactive
#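 DiscoveRx PathHunter D2 beta-arrestin cells (2,100/well) attached overnight, then compound-stimulated 90 min at 37 C in HBSS/10 mM HEPES/0.1% Tween-20 buffer; beta-galactosidase complementation read by luminescence after 1 h at ambient temperature. Dopamine 57 uM final (EC100) as control.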
# Active calls of the source: *; u = inconclusive; x = not tested or not shown; [ ] = remark or other dose. Rows were taken by chance; overall some 1.3% were active at least once.
SMILES,CtBP-E1A blk,TRPML1 agonist,PINK1 expr mod,D2 potentiator,Six1-Eya2 blk,D2 agonist
Cc1cccc(NC(=O)Cn2c(=O)oc3ccccc32)c1,1,-1.4,0.5%,-5,-3,-4.1
O=C(CN(C(=O)CCC(=O)Nc1nccs1)c1ccccc1F)NCc1ccccc1,1,-0.5,6.3%,-2,2,0.2
NC1=NC[C@H](Cc2ccccc2)N1CCc1cccc(F)c1,x,-0.1,-0.7%,-11,0,-1.5
Cc1ccc(NC(=O)COC(=O)CCn2c(C)csc2=O)cc1S(=O)(=O)N1CCOCC1,-2,-0.3,0.5%,7,2,-1.7
CC1C=CCC2C(=O)N(c3cccc(C(=O)Nc4ccc(F)cc4)c3)C(=O)C12 (stereo unspecified),7,-0.4,1.3%,-19,-3,-1.9
COc1cccc2cc(-c3cn4cccc(C)c4n3)c(=O)oc12,-8,1.6,5.1%,2,4,-1.4
CC(C)(C)NC(=O)CN1CCCN(C(=O)c2cccc(S(=O)(=O)N3CCc4ccccc43)c2)CC1,0,2.3,1.3%,-2,-2,0.8
O=C(NCCCO)C(=O)NCCc1ccc(Cl)cc1,-2,0.5,-0.7%,10,6,4.9
COc1cc(-c2onc3ccc(Br)cc23)cc(OC)c1OC,30,2.6,8.7%,59*,10,u
CCN1/C(=C2/SC(=S)N(NC(C)=O)C2=O)Sc2ccc(OC)cc21,x,0.6,-1.3%,-18,-2,-4.7
COc1ccc(CNC(=O)COC(=O)c2ccc(F)c(S(=O)(=O)N3CCOCC3)c2)cc1,6,0.2,-1.0%,-11,-1,-0.8
Cc1c(NC(=O)C2CCCCN2S(=O)(=O)c2ccc(Cl)cc2)c(=O)n(-c2ccccc2)n1C (stereo unspecified),3,-0.7,1.9%,-3,-6,-3.3
O=S(=O)(c1ccccc1F)N1CCN(c2nc(-c3cccnc3)nc3ccccc23)CC1,x,-1.0,1.2%,6,-18,7.4
O=C(NCCc1ccccc1O)c1cc2c(cc1[N+](=O)[O-])OCO2,0,0.6,-4.7%,-14,4,-0.2
CCN(CCNCC(O)COCc1ccc(Cl)cc1)c1cccc(C)c1 (stereo unspecified),-21,0.4,-2.5%,-6,-14,-2.0
CC(=O)N1CCN(c2nc3ccc([N+](=O)[O-])cc3s2)CC1,x,0.6,-0.8%,-1,5,8.2
Cc1ccccc1N/C(=N/S(=O)(=O)c1ccccc1)c1ccc(F)cc1,-21,x,-0.5%,-16,0,-6.7
O=C(c1ccccc1)c1cncc(Br)c1,3,-0.4,1.8%,4,0,-0.7
C/C(=N\NC(=O)c1c(Cl)cnn1C)c1cccnc1,-3,0.1,-0.9%,2,-1,0.0
COC(=O)[C@]12CCCCC=C1N(CCC1=CCCCC1)C(=O)[C@H](CC(=O)NCCC(C)C)C2,-13,-0.4,3.0%,x,4,x
CCc1c(C)nc2ccc(Br)cc2c1Cl,9,-0.1,1.4%,-12,4,-3.2
Cc1ccc(C(=O)NC2CC2)cc1S(=O)(=O)N1CCOCC1,x,-0.5,-1.9%,-1,10,-2.3
O=C(NCc1ccco1)/C(=C\c1ccco1)NC(=O)c1cccs1,-8,-0.9,0.6%,-23,14,-1.7
O=C(CN1C(=O)NC2(CCCCCCC2)C1=O)N1CCOCC1,6,0.0,9.4%[38.3 µM],-11,5,-2.0
Cc1nc(N)nc(N)c1/C=C/C(C)(C)c1ccc(Cl)cc1,0,0.2,-2.5%,-10,10,1.4

# Other compounds
SMILES,CtBP-E1A blk,TRPML1 agonist,PINK1 expr mod,D2 potentiator,Six1-Eya2 blk,D2 agonist
COc1ccccc1NC(=O)Nc1cccc(C)n1,x,x,0.1%,9,11,-1.7
CC(=O)Nc1nc(SCc2cccc3ccccc23)n[nH]1,-4,-1.1,5.2%,-7,-1,-3.4
CC1=NOC2(C1)N(C)c1ccccc1C2(C)C (stereo unspecified),-2,0.5,u,-3,2,-1.3
Cc1ccc2cc(CN(CCCO)S(=O)(=O)c3cccc4nsnc34)c(=O)[nH]c2c1,-7,-0.3,-4.7%[38.3 µM],-7,3,-0.7
COc1ccc(OC)c(-n2c(-c3cnccn3)n[nH]c2=S)c1,0,-0.3,x,11,23,-2.1
O=S1(=O)CC(N2CCN(c3ccccn3)CC2)CN1Cc1ccccc1 (stereo unspecified),-21,-0.3,-0.9%,-3,13,9.2
c1ccc(C2=Nn3c(Cn4nnc5ccccc54)nnc3SC2)cc1,0,0.2,3.1%,-7,1,-5.8
CN(Cc1ccnc2ccccc12)C(=O)C1CCC(=O)N(Cc2ccccc2F)C1 (stereo unspecified),0,1.0,1.5%,9,-2,5.5
Cc1cccc(-n2ccnc2SCC(=O)Nc2cc(C)on2)c1,-2,1.7,-0.9%,-16,-6,-1.4
Cc1cccc[n+]1CC(=O)Nc1ccccc1,5,-0.6,1.2%,0,6,-2.1
Cc1ccc(Cc2c(-c3ccc(Cl)cc3)nc3cc(C)c(Br)c(C)n23)cc1,4,-0.8,0.5%,-6,-12,-3.5
Cc1csc(NC(=O)C2CCN(S(=O)(=O)c3ccc4c(c3)oc(=O)n4C)CC2)n1,22,-0.5,1.1%,1,18,2.1
CCOCCc1nn2c(=O)cc(CSCC(=O)Nc3cccc(C)c3C)nc2s1,x,2.6,3.6%,-8,6,1.6
CCN1CCN(C(=O)CCN2C(=O)COc3ccc(C)cc32)CC1,-7,0.0,x,-15,1,-1.9
O=C(NN=Cc1ccc2c(c1)CCC2)c1cccc([N+](=O)[O-])c1,-11,-0.6,9.6%,-14,-8,-6.8
Cc1cc(SCC(=O)N(C)C2CCS(=O)(=O)C2)nc2c(C)cccc12 (stereo unspecified),7,0.0,-2.3%,-6,0,-0.1
Cc1c(NC(=O)CN2C(=O)NC(C)(c3ccccc3)C2=O)c(=O)n(-c2ccccc2)n1C (stereo unspecified),2,-0.3,-1.0%,-13,1,-3.0
CCOC(=O)c1sc2nc(SCC#N)n(CCCN3CCCC3=O)c(=O)c2c1C,-8,-0.3,2.3%[38.3 µM],-16,-2,-4.2
CCc1nc2ccc(C(=O)NCCCN3CCCC3=O)cn2c1N(CC)CCOC,3,-0.3,0.9%,-10,7,-1.7
COc1cccc(CN2CCN(Cc3ccc4c(c3)OCCO4)CC2CCO)c1 (stereo unspecified),x,-0.3,1.9%,-25,-3,-2.5
CC(=O)NC(c1ccc(Cl)cc1Cl)c1ccc2cccnc2c1O (stereo unspecified),-88*,0.7,4.3%,5,-90*,4.8
S=C(Nc1ccc(Br)cc1)NC1CCN(Cc2ccccc2)CC1,-13,2.3,5.7%,-22,-12,-3.2
Cc1cc(NC(=O)CSc2ccc(-c3ccc(F)cc3)nn2)no1,-7,2.8,0.8%,-4,4,2.3
COc1ccc(-c2csc(NC(C)c3nc4cc(C(=O)NCCCO)ccc4n3Cc3ccc(C)cc3)n2)cc1 (stereo unspecified),x,0.3,1.3%,-12,-12,-1.9
CC(NC(=O)c1ccco1)C(=O)N1CCN(S(=O)(=O)c2ccccc2C#N)CC1 (stereo unspecified),x,-0.4,0.3%,1,-2,-1.5

# Profiles as entered above.
# CC(=O)NC(c1ccc(Cl)cc1Cl)c1ccc2cccnc2c1O (stereo unspecified) across the screens: CtBP-E1A blk = -88*; TRPML1 agonist = 0.7; PINK1 expr mod = 4.3%; D2 potentiator = 5; Six1-Eya2 blk = -90*; D2 agonist = 4.8
# Cc1cc(SCC(=O)N(C)C2CCS(=O)(=O)C2)nc2c(C)cccc12 (stereo unspecified) across the screens: CtBP-E1A blk = 7; TRPML1 agonist = 0.0; PINK1 expr mod = -2.3%; D2 potentiator = -6; Six1-Eya2 blk = 0; D2 agonist = -0.1

# Back to the main list, repeating the 3 entries before the break.
SMILES,CtBP-E1A blk,TRPML1 agonist,PINK1 expr mod,D2 potentiator,Six1-Eya2 blk,D2 agonist
Cc1cc(NC(=O)CSc2ccc(-c3ccc(F)cc3)nn2)no1,-7,2.8,0.8%,-4,4,2.3
COc1ccc(-c2csc(NC(C)c3nc4cc(C(=O)NCCCO)ccc4n3Cc3ccc(C)cc3)n2)cc1 (stereo unspecified),x,0.3,1.3%,-12,-12,-1.9
CC(NC(=O)c1ccco1)C(=O)N1CCN(S(=O)(=O)c2ccccc2C#N)CC1 (stereo unspecified),x,-0.4,0.3%,1,-2,-1.5
CC(=O)NC(Cc1ccccc1F)C(=O)NC1CCN(C(=O)c2cnccn2)CC1 (stereo unspecified),7,-0.5,0.0%[38.3 µM],1,1,-0.4
CCN(CC(=O)Nc1cc(Cl)ccc1C)C(=O)c1nc2nc(C)cc(C)n2n1,3,-0.2,4.5%,-2,6,-3.3
Cc1ccc(N2N=C(C(=O)O)CCC2=O)cc1Cl,11,1.1,0.2%,-5,9,8.7
O=C(O)CCCN1C(=O)/C(=C/c2cn(-c3ccccc3)nc2-c2cccs2)SC1=S,-11,2.8,4.8%,0,-10,-2.7
O=S(=O)(N[C@H](CO)c1ccccc1)c1ccc(Br)cc1F,3,-0.8,1.8%,-5,1,-2.6
COc1ccc(NS(=O)(=O)c2cc(NC(=O)c3ccc(C)o3)ccc2N2CCCCC2)cc1,-1,0.4,2.4%,-21,-7,-2.5
Cc1ccc(S(=O)(=O)N2CCN(C(=O)COC(=O)/C=C/c3ccc(F)cc3)CC2)c(C)c1,-25,1.1,3.7%,-11,-6,1.3
O=C(Nc1ncnc2c1ncn2[C@@H]1O[C@H](/C=C/C(=O)N2CCN(c3ccc(F)cc3)CC2)[C@@H](O)[C@H]1O)c1ccccc1,0,-0.4,1.5%,-2,-4,-7.0
COC(=O)c1ccc(CSc2cc(C)c3cc(C)cc(C)c3n2)o1,-8,2.5,7.6%,-30,-6,0.5
O=C(Nc1ccc(S(=O)(=O)Nc2nccs2)cc1)c1cc(-c2ccccn2)nc2ccccc12,-9,1.7,0.7%,-11,-2,-5.7
O=C(c1ccco1)N1CCN(S(=O)(=O)c2ccc(C3CCCCC3)cc2)CC1,1,-1.2,1.1%,-3,-3,1.7
CC(C)CCN1C(=O)c2ccc(C(=O)Nc3c[nH]c(=O)[nH]c3=O)cc2C1=O,-1,4.0,-0.5%,-8,6,2.0
CSc1nc2ccccc2c(=O)n1N,-11,1.1,0.7%[38.3 µM],-11,-1,-1.7
CCCN(CCC)S(=O)(=O)c1ccc(Cl)c([N+](=O)[O-])c1,x,0.9,-1.3%,9,-23,15
O=C(Nc1ccc(N2CCOCC2)c(Cl)c1)c1ccc(S(=O)(=O)N2CCOCC2)cc1,0,-0.4,13%,-8,-18,-0.9
O=C(Nc1ccncc1)Nc1ccc(F)cc1,10,-0.4,0.0%,-1,8,6.9
CC1(C)CC(=O)C2=C(C1)OC(N)=C(C#N)C21C(=O)N2CCCc3cccc1c32 (stereo unspecified),-3,0.1,10%[38.3 µM],4,1,-1.2
CC(C)Cc1nc(SCC(=O)N2CCCCC2)c2c(=O)n(C)c(=O)n(C)c2n1,-23,0.7,-0.2%,-5,-1,0.5
CCCc1nc2c(sc3nc4c(cc32)COC(C)(C)C4)c(=O)o1,x,1.1,0.5%,-2,0,-3.0
CCC(C)c1ccc(S(=O)(=O)N2CCN(C(=O)c3ccc(Cl)c(S(=O)(=O)N4CCOCC4)c3)CC2)cc1 (stereo unspecified),x,0.0,1.5%,-1,-5,-2.8
Cc1ccc(C(=O)CSc2nc(O)cc(=O)[nH]2)cc1C,x,-0.5,1.5%,-6,-1,-3.4

# Screening results: PubChem, National Center for Advancing Translational Sciences (NCATS)
